# AMA1-RON2 inh: qHTS for Inhibitors of AMA1-RON; Towards Development of Antimalarial Drug Lead: Primary Screen. Plasmodium falciparum AMA1 (3D7) - RON2 peptide interaction. AlphaScreen AMA1-biotinylated RON2 peptide binding. Potency, µM (doses to about 58.2 µM), inactives show top-dose activity change, negative = inhibition, usual class: inhibitors. 360,000 compounds, 0.2% hits. AID 720542, 2013;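 note: potency is the fitted concentration of half-maximal effect; 0% = vehicle wells and -100% = peptide control; nearly all actives have a fitted effect of over 45% in size; some results filed as inactive show a strong effect at the top dose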
#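 AMA1 (3D7) with his tag at 25 nM final met compounds first, then biotinylated RON2 peptide at 25 nM; detection used donor plus acceptor beads, 10 µg/mL apiece, read by AlphaScreen after 30 min at room temperature.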
# HCMV inh: qHTS Assay for inhibitors of the human cytomegalovirus (HCMV); AID 1259415, 2018; 410,000 compounds, 4.5% hits; activity change, negative = inhibition, % at 57.5 µM; HFF cells, HCMV-luciferase reporter, 72 h; hits give low values; in the data active = activity change below about -60%; inconclusive = no clear call, values can overlap the other calls; inactive = above about -39%
#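 Screen run at 2 compound doses on HFFs infected with reporter HCMV, MOI 1 PFU/cell. Luciferase activity from cell lysates at 72 h post infection gave inhibition relative to buffer-only and Salinomycin wells.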
# AmpC detergent: qHTS Inhibitors of AmpC Beta-Lactamase (assay with detergent). 370,000 compounds, 0.041% hits. AID 485294, 2010. AmpC hydrolysis of nitrocefin, absorbance 480 nm, 0.01% Triton. Potency, µM (series often up to 114 µM), without a hit: at the top dose activity change, negative = inhibition, most hits filed as inhibitors. P00811;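 note: potency is the fitted concentration of half-maximal effect; 0% = no-compound wells and -100% = no-enzyme wells; nearly all actives have a fitted effect of over 25% in size; some results filed as inactive show a strong effect at the top dose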
# Target sequence (P00811 whole entry, looked up): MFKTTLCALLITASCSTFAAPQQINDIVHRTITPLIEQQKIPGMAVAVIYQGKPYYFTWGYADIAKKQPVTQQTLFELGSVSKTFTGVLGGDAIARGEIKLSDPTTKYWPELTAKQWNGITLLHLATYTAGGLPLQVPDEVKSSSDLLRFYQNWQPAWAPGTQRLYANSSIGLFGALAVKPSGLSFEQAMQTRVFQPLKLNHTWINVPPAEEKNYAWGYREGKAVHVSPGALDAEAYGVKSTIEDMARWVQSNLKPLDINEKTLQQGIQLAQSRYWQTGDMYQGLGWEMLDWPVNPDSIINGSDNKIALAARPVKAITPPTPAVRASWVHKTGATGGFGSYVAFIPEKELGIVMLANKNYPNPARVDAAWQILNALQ
#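 20 mM phosphate pH 7.0 + 0.01% (detergent screen) or 0.0001% Triton X-100; 5.3 nM AmpC reagent; cpd preinc 15 min RT; nitrocefin (800 uM stock) to start; A480 q20 s × 4 min; Activity was normalised to no-enzyme and no-compound control wells.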
# AmpC no deterg: qHTS Inhibitors of AmpC Beta-Lactamase (assay without detergent). 330,000 compounds, 0.52% hits. P00811. Potency, µM (doses to about 57.1 µM), for the others: top-dose activity change, negative = inhibition, actives largely listed as inhibitors. AmpC nitrocefin hydrolysis, absorbance 480 nm, 0.0001% Triton. AID 485341, 2010;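 note: potency is the fitted concentration of half-maximal effect; plate controls were no compound for no effect and no enzyme for full effect; nearly all actives have a fitted effect of over 20% in size; some results filed as inactive show a strong effect at the top dose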
#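 AmpC (5.3 nM in the dispensed reagent) in 20 mM phosphate pH 7.0 with 0.01% (detergent screen) or 0.0001% Triton X-100 was preincubated with compounds for 15 min at room temperature. Nitrocefin was then added from an 800 uM solution, and hydrolysis was followed at 480 nm.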
# TbPYK inhibitor: qHTS of Trypanosoma Brucei Inhibitors; pyruvate kinase (Trypanosoma brucei), Q57TT1; TbPYK enzyme, Kinase-Glo Plus ATP luminescence, 45 min; Potency, µM (titrated, usually from 76.8 µM), for the others: at the top dose activity, negative = inhibition, hits mostly inhibitors; 410,000 compounds, 0.12% hits; AID 624173, 2012; note: potency is the fitted concentration of half-maximal effect; nearly all actives have a fitted effect of over 50% in size
#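 Quantitative HTS: titrated library compounds versus trypanosomal pyruvate kinase in TEA buffer (pH 7.2) containing KCl, MgCl2, BSA and Tween-20. Reactions were initiated with ADP, 130 uM final. Kinase-Glo Plus luminescence was read after 45 min at RT.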
# LmPK inh: qHTS Assay for Inhibitors of Leishmania Mexicana Pyruvate Kinase (LmPK); Q27686; purified LmPK, Kinase-Glo ATP luminescence, 1 h; Potency, µM (series often up to 57.5 µM), inactives show top-dose activity change, negative = inhibition, most hits filed as inhibitors; 290,000 compounds, 0.37% hits; note: potency is the fitted concentration of half-maximal effect
# Target sequence (Q27686 whole entry, looked up): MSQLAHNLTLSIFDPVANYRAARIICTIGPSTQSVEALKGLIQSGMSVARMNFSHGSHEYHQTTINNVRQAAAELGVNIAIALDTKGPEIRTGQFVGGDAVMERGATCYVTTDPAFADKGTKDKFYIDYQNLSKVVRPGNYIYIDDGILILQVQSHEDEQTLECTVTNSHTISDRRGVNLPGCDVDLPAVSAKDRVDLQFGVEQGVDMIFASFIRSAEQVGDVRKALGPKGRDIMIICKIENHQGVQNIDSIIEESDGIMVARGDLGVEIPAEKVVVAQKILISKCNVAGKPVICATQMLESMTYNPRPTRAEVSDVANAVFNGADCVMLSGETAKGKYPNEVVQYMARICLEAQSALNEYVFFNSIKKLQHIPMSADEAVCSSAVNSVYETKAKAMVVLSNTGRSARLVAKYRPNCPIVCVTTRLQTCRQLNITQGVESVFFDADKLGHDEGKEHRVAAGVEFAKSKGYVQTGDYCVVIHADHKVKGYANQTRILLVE
#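 Purified LmPK (0.1 nM) with 0.5 mM PEP and 0.1 mM ADP in imidazole buffer pH 7.2 with MgCl2/KCl, 1 h at room temperature. ATP formed was read by luciferase luminescence and normalized to no-enzyme and uninhibited controls.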
# The depositor's hits bear a star; ? = inconclusive; . = not tested or not shown; [ ] = remark or other dose. Unless noted, calls come from the whole dose curve; as a rule, active = well fitted curve in the direction sought with a large enough effect; inconclusive = small, poorly fitted or top-dose-only effect, or another doubt; inactive = no such curve, though single readings can be large; an effect the other way counts as inactive or inconclusive. Unless noted, % is set by controls: 0 for no effect and ±100 for the full control effect.
entry | canonical_smiles | AMA1-RON2 inh | HCMV inh | AmpC detergent
1 | CC(=O)c1ccc(NC(=O)NNS(=O)(=O)c2ccc([N+](=O)[O-])cc2)cc1 | 15% | -25 | -2%
2 | CC(C)(C)Cc1nnc(NS(=O)(=O)c2ccc([N+](=O)[O-])cc2)s1 | -6% | -3 | 3%
3 | O=C(CNC1CCCC1)Nc1ccc(N2CCCCCC2)cc1 | ? | -25 | -15%
4 | CCC(C)(C)NC(=O)CC(c1ccc(OC)cc1)n1cccc1 (stereo not drawn) | -8% | 4 | 1%
5 | O=C(NCCCn1ccnc1)c1cc2c(ccc3ccccc32)o1 | -1% | 77 | 3%
6 | Cc1ccccc1CNc1ccc(C(CC(N)=O)NC(=O)c2ccccc2)cc1[N+](=O)[O-] (stereo not drawn) | -6% | ? | -1%
7 | Cn1c(CCN2CCN(c3ccccc3)CC2)nc2cc(NC(=O)c3ccco3)ccc21 | -6% | -29 | -14%
8 | CC1(C)C([N+](=O)[O-])C(c2ccccc2O)NC(c2ccccc2O)C1[N+](=O)[O-] (stereo not drawn) | 15% | -27 | 5%
9 | O=C(CSc1n[nH]c(-c2cccnc2)n1)Nc1ccccc1C(F)(F)F | 0% | 11 | -8%
10 | CCn1c2ccccc2c2cc(NC(=O)C(C)C)ccc21 | 0% | -34 | 1%

entry | AmpC no deterg | TbPYK inhibitor | LmPK inh
1 | -60% | 6% | -5%
2 | -27% | 2% | -1%
3 | -7%[11.4 µM] | 4% | -1%
4 | -13% | -4% | 2%
5 | 3% | 1% | 5%
6 | -26% | -5% | 3%
7 | 21% | -4% | 7%
8 | -32% | 7% | 10%
9 | -10% | . | 8%
10 | -14% | -4% | 3%

# (list continues)
entry | canonical_smiles | AMA1-RON2 inh | HCMV inh | AmpC detergent
11 | O=C(C1CCN(S(=O)(=O)c2ccccc2F)CC1)N1CCN(Cc2ccc3c(c2)OCO3)CC1 | 8% | -33 | -10%
12 | COc1ccc(OCCSc2nnnn2C2CCCCC2)cc1 | 11% | -40 | ?
13 | O=C(COc1ccccc1[N+](=O)[O-])Nc1ccc(Br)cc1 | 0% | 18 | 1%
14 | Cc1cnc(CN(C)C(=O)c2ccc3oc(Cc4ccccc4)nc3c2)[nH]1 | -11% | 22 | -5%
15 | O=C(N/N=C/c1ccc(O)c(O)c1)c1ccc(CSc2cccc3cccnc23)cc1 | 41%[activator] | -13 | 2%
16 | CCCCn1c(N)c(N(CC(C)C)C(=O)c2ccc(S(=O)(=O)N3CCCCC3)cc2)c(=O)[nH]c1=O | -4% | 1 | -7%
17 | O=C(CCN1C(=O)c2ccccc2C1=O)N1CCN(C2c3ccccc3-c3ccccc32)CC1 | 2% | -21 | 1%
18 | CC(C)COC(=O)Nc1nnc(SCCOc2ccccc2)s1 | 6% | -26 | 0%
19 | O=C(O)CSc1nnc(Cn2c(=O)sc3ccccc32)n1-c1cccc(Cl)c1 | -13% | . | 0%
20 | COc1ccc([C@H]2CC(=O)C=C(/C=C/c3ccccc3)C2)cc1 | -13% | 91 | -1%

entry | AmpC no deterg | TbPYK inhibitor | LmPK inh
11 | 145%[activator] | 0% | .
12 | -16% | 2% | 1%
13 | -10% | 4% | 5%
14 | 21% | -4% | 0%
15 | -57% | -1% | -1%
16 | -22% | -1% | .
17 | -6% | 2% | -3%
18 | -20% | -1% | 3%
19 | -16% | -13% | -2%
20 | -14% | -12% | .

# An excerpt of these results, field by field.
(11) O=C(C1CCN(S(=O)(=O)c2ccccc2F)CC1)N1CCN(Cc2ccc3c(c2)OCO3)CC1
  AMA1-RON2 inh: 8%	HCMV inh: -33	AmpC detergent: -10%	AmpC no deterg: 145%[activator]	TbPYK inhibitor: 0%	LmPK inh: .
(12) COc1ccc(OCCSc2nnnn2C2CCCCC2)cc1
  AMA1-RON2 inh: 11%	HCMV inh: -40	AmpC detergent: ?	AmpC no deterg: -16%	TbPYK inhibitor: 2%	LmPK inh: 1%
(13) O=C(COc1ccccc1[N+](=O)[O-])Nc1ccc(Br)cc1
  AMA1-RON2 inh: 0%	HCMV inh: 18	AmpC detergent: 1%	AmpC no deterg: -10%	TbPYK inhibitor: 4%	LmPK inh: 5%
(14) Cc1cnc(CN(C)C(=O)c2ccc3oc(Cc4ccccc4)nc3c2)[nH]1
  AMA1-RON2 inh: -11%	HCMV inh: 22	AmpC detergent: -5%	AmpC no deterg: 21%	TbPYK inhibitor: -4%	LmPK inh: 0%

# More entries follow:
entry | canonical_smiles | AMA1-RON2 inh | HCMV inh | AmpC detergent
21 | O=C(N/C(=C/c1ccc(Cl)cc1)C(=O)N1CCOCC1)c1ccccc1 | -6% | -78* | -1%
22 | COc1cc(NS(C)(=O)=O)c(OC)cc1NC(=O)c1cccc(F)c1 | 6% | -15 | ?
23 | CCOC(=O)c1c(C)[nH]c(C)c1S(=O)(=O)NCC1CCN(Cc2ccccc2OC)CC1 | -9% | -31 | -5%
24 | O=C(COC(=O)CCc1ccccc1)Nc1ccc(F)cc1Cl | 6% | 11 | -7%
25 | O=P(C(Cl)Cl)(N1CCCCC1)N1CCCCC1 | 1% | -12 | -2%
26 | O=C(N/C(=C\c1ccc([N+](=O)[O-])cc1)C(=O)N1CCOCC1)c1ccccc1 | 3% | -3 | -2%
27 | Cc1c(OCC(=O)OC(C)C)ccc2c3c(c(=O)oc12)CCC3 | -4% | 28 | 8%
28 | Brc1ccc(CSc2ccc3nnc(-c4cccnc4)n3n2)cc1 | -5% | 29 | ?
29 | COc1ccc(C2=NN(C)C(=NCc3ccccc3)SC2)cc1 | 9% | -13 | -11%
30 | c1csc(-c2ccn[nH]2)c1 | -7% | 2 | -5%

entry | AmpC no deterg | TbPYK inhibitor | LmPK inh
21 | 27% | 2% | -3%
22 | -4% | -11% | -3%
23 | -34% | 4% | 3%
24 | 2% | 9% | -2%
25 | -9% | 1% | -2%
26 | -27% | -1% | 0%[11.5 µM]
27 | -20% | 0% | 6%
28 | 43% | -2% | 13%
29 | -16% | -14% | 0%
30 | -14% | -4% | 0%

# Next part, starting with the last 2 of the part before.
entry | canonical_smiles | AMA1-RON2 inh | HCMV inh | AmpC detergent
29 | COc1ccc(C2=NN(C)C(=NCc3ccccc3)SC2)cc1 | 9% | -13 | -11%
30 | c1csc(-c2ccn[nH]2)c1 | -7% | 2 | -5%
31 | CCOc1cc(/C=N/NC(=O)c2cccc(S(=O)(=O)N3CCCC3)c2)ccc1OCC(=O)N(C)C | 13% | -14 | ?
32 | COc1cccc(-n2c([S-])c(C(=O)Nc3ccc(S(=O)(=O)N4CCOCC4)cc3)[n+]3cc(C(N)=O)ccc23)c1 | 3% | -25 | 2%
33 | CCn1c(CNc2ccc(OC)cc2)nnc1SCC(=O)N1CCCc2ccccc21 | -3% | 15 | -14%
34 | CC1CCCC(C)N1C(=O)Cn1cc(/C=C2/C(=O)Nc3ccccc32)c2ccccc21 (stereo not drawn) | -8% | . | -2%
35 | O=C(CCC1CCCN(C(=O)c2cccc(F)c2)C1)N1CCN(c2ccccn2)CC1 (stereo not drawn) | 20% | -19 | -3%
36 | CC[C@](C)(CN(C)C)OC(=O)c1ccccc1 | . | . | .

entry | AmpC no deterg | TbPYK inhibitor | LmPK inh
29 | -16% | -14% | 0%
30 | -14% | -4% | 0%
31 | 134%[activator] | 4% | .
32 | 6% | -9% | 2%
33 | 41% | 5% | 4%
34 | 7% | 0% | 0%
35 | 32% | 1% | 3%
36 | . | 10%[33.2 µM] | .

# Some of these compounds in order of SMILES length, highest first:
entry | canonical_smiles | AMA1-RON2 inh | HCMV inh | AmpC detergent
31 | CCOc1cc(/C=N/NC(=O)c2cccc(S(=O)(=O)N3CCCC3)c2)ccc1OCC(=O)N(C)C | 13% | -14 | ?
34 | CC1CCCC(C)N1C(=O)Cn1cc(/C=C2/C(=O)Nc3ccccc32)c2ccccc21 (stereo not drawn) | -8% | . | -2%
36 | CC[C@](C)(CN(C)C)OC(=O)c1ccccc1 | . | . | .

entry | AmpC no deterg | TbPYK inhibitor | LmPK inh
31 | 134%[activator] | 4% | .
34 | 7% | 0% | 0%
36 | . | 10%[33.2 µM] | .

# Bioassay records deposited in PubChem BioAssay by National Center for Advancing Translational Sciences (NCATS).

# These rows are one share of the data; count on the stated rates, not on these rows.
